Bioassay records (PubChem BioAssay)
Ecoli rRNA inh – selective bacterial rRNA inhibition in E. coli | E. coli WT GFP vs humanized-ribosome RFP mutants, fluorescence, 24 h; active compounds read low; DMSO median 0, no signal -100 | GFP signal change (wild-type ribosome), % (no concentration beside the values) | hit rate 1.6% among 350,000;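 active means significant combined selectivity score with lowered wild-type GFP, culture density cut under 30%, mutant RFP and density less affected; inactive means any of these conditions unmet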; further: one replicate is shown; some compounds called inactive have numbers as strong as hits
RanGTP-Imp inh – disruptors of Ran-importin-beta complex formation – biochemical, FRET, CFP-Ran, YFP-importin-beta, homogeneous, primary screen. cell-free CFP-Ran/YFP-importin-beta FRET ratio. hit rate 1.1% among 300,000. inhibition, % (test concentration not listed);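 active means most replicates above 15%; inconclusive means exactly half above 15%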;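 further: 0% = DMSO wells and 100% = Ran loaded with GDP instead of GTP; wells of about 40 µL received 100 nL stock; the first replicate is given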
MLL AF4-AF9 inh – MLL-AF4/AF9 protein interaction inhibition; P42568; AlphaScreen, biotin-AF4 peptide binding to FLAG-AF9; inhibition, % at 10 µM; hit rate 0.47% among 350,000; AID 651704;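 active means every replicate reaching a set inhibition limit, whatever the replicate mean, cut at about 25% in these data; inconclusive means mean inhibition reaches that limit but some replicates miss it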;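 further: 0% = plate neutral control median and 100% = total signal loss; the record names both 10 and 1 µM as test concentration; the first replicate is given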
Target sequence (P42568 whole entry, looked up): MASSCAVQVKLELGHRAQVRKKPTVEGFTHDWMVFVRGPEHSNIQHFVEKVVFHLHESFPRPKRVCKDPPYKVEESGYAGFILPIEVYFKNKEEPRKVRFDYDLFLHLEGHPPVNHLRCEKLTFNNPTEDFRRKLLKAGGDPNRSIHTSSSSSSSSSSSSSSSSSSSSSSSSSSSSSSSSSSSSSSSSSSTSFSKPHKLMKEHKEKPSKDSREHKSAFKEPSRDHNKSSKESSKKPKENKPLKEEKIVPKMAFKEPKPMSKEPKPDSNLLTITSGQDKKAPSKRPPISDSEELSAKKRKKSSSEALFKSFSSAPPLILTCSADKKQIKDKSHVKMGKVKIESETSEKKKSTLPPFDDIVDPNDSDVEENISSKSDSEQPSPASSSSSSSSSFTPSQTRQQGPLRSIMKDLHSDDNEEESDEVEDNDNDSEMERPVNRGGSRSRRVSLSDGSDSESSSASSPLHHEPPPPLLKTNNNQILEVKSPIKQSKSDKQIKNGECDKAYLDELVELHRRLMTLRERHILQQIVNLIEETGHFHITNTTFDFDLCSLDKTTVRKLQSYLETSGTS
T cruzi repl – blocks replication of Trypanosoma cruzi | hit rate 1.4% among 300,000 | inhibition, % (concentration not given with the values) | T. cruzi beta-gal in NIH3T3, luminescence, 90 h;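 active means mean inhibition across valid replicates above about 55%, limit read from the data; inconclusive means mean below that limit but half or more replicates reach it; inactive means mean below it, under half of replicates reach it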;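 further: signal also drops with host cell toxicity which is not excluded here; 0% = plate median of DMSO wells and 100% = zero luminescence signal; higher percent means less beta-gal luminescence so fewer parasites; stock transfer was 50 nL into about 50 µL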
Calb FLC – affects C. albicans growth with fluconazole. hit rate 0.57% among 300,000. AID 1979. C. albicans CaCi-2 (fluconazole-resistant clinical isolate) + fluconazole, Alamar Blue growth, 48 h. growth inhibition, % (concentration not given with the values);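 active means most replicates above 75%; inconclusive means exactly half above 75%; inactive means most below 75%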;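 further: all wells also contain fluconazole at 8 µg/ml as a sub-toxic cotreatment; 0% = median of DMSO wells and 100% = median of geldanamycin control wells; wells of about 8 µL received 7.5 nL stock; the first replicate is given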
Vif A3G – HIV-1 Vif–A3G interaction blockers – biochemical, TR-FRET, GST-Vif 1-94, biotin-A3G peptide, dose response retest, primary screen (AID 1117319) | hit rate 0.57% among 260,000 | inhibition, %; hits with a dose series show IC50 in µM | TR-FRET GST-Vif / biotin-A3G peptide binding; higher % means a stronger effect; test concentration not given here; strong numbers were not always called active;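 active means above the screen mean plus three standard deviations and confirmed in dose response; inconclusive means results disagree or hit not tested in dose response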;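 further: Vif residues 1-94 fused to GST binding biotinylated APOBEC3G peptide 110-148; 0% = full assay without inhibitor and 100% = GST in place of GST-Vif; retest series ran down from 100 µM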
Beta cell apopt – blocks beta cell apoptosis. INS-1E cytokine-induced death, ATP luminescence, 48 h; percent of positive-control rescue, neutral wells zero. protection from apoptosis, % (no concentration beside the values). hit rate 0.8% among 300,000. AID 435005;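 active means all replicates at 75% or more, or half of them and the mean; inconclusive means half reach 75% but not the mean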;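 further: 0% = cytokine-treated negative control wells and 100% = positive control rescue; higher means more ATP so stronger rescue from cytokine killing; wells of about 40 µL received 100 nL stock; the first replicate is given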
A1 inh – inhibitors of the anti-apoptotic protein A1, read as caspase activation; MEF A1-2A-BIM cells, Caspase-Glo 3/7 luminescence, 3 h; percent of clofoctol response, vehicle zero; caspase activation, % (concentration not given with the values); hit rate 0.066% among 330,000; AID 2462;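 active means over half of replicate activation scores above 10%, or exactly half above 10 with the replicate mean above 10; inconclusive means replicate mean below 10 yet half the replicates above 10; inactive means over half of replicates below 10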;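 further: wells of about 30 µL received 50 nL stock; many hits fall short of the cut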
Ecoli rRNA inh OD600 – recorded beside Ecoli rRNA inh, whose call it bears; OD600 change, %; measured here: OD600 growth;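 optical density of the mix in the first replicate; 0 = DMSO median and -100 = no signal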
Ecoli rRNA inh RFP – recorded beside Ecoli rRNA inh, whose call it bears; RFP signal change, %; measured here: RFP humanized mutant strains;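 first replicate; 0 = DMSO median and -100 = no signal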
Active calls of the source: *; u = inconclusive; x = not tested or not shown; & = joins results of further samples.

SMILES	Ecoli rRNA inh	Ecoli rRNA inh OD600	Ecoli rRNA inh RFP	RanGTP-Imp inh	MLL AF4-AF9 inh	T cruzi repl	Calb FLC	Vif A3G	Beta cell apopt	A1 inh
O=C(CSc1ncnc2c1nnn2Cc1ccccc1)NC1CCCCC1	24.7	20.1	1.2	0.0	-1.5	-1.0	-0.8	-13.3%	-22.5	0.1
C/C(=N\NS(=O)(=O)c1ccc(Br)cc1)c1ccc2c(c1)OCO2	-2.1	-12.0	-0.8	4.2	-4.2	-6.2	2.3	x	-12.3	0.6
COc1cc(OC)c(C(=O)OC(C)C(=O)Nc2cccc(C(F)(F)F)c2)cc1OC (stereo unspecified)	x	x	x	-1.2	x	3.4	-21.8	-1.1%	0.8	0.9
O=C(O)c1cccc(NC(=O)c2ccc3c(c2)C(=O)N(Cc2ccco2)C3=O)c1	9.9	11.2	-0.5	7.2	-1.2	1.2	-15.5	19.7%	-3.1	0.7
CC1CCN(C(=O)c2ccc(N(C)S(C)(=O)=O)cc2)CC1	x	x	x	-3.5	x	-14.6	-2.4	-1.4%	-4.9	2.0
COc1ccc(S(=O)(=O)n2nc(OC(=O)c3ccco3)cc2N)cc1	x	x	x	-2.7	x	-14.8	13.4	-0.5%&-4.3%	-8.3	0.5
COc1ccccc1/C=N/NC(=O)c1ccc(NC(=O)c2cccc([N+](=O)[O-])c2)cc1	x	x	x	1.0	x	-27.9	-9.4	3.4%	0.3	-0.1
CCOC(=O)CSc1nnc(-c2ccoc2C)n1-c1ccc(OCC)cc1	x	x	x	-5.2	x	-2.1	-4.1	u	3.2	0.3
COc1ccc(CC(NC(C)=O)C(=O)NC2CCN(S(=O)(=O)c3ccc(NC(C)=O)cc3)CC2)cc1 (stereo unspecified)	1.0	11.4	-1.3	1.5	9.0	-9.9	-2.0	x	1.4	0.0
CCN(CC)c1ccc(NC(=O)c2ccccc2)cc1S(=O)(=O)Nc1ccccc1OC	x	x	x	u	0.6	39.3	-2.7	2.6%	51.2	0.5
CCOn1c(=O)c(-c2ccccc2)[n+]([O-])c2ccccc21	4.8	2.0	0.9	-1.3	0.3	-16.4	x	-5.0%	-2.1	-0.3
CCOC(=O)c1c(C)n(C)c2ccc(O)c(CN(C)C)c12	x	x	x	0.4	x	-6.8	15.6	-4.2%&9.0%	-1.3	0.1
Cc1ccc(C)n1-c1ccc(C(=O)NCc2cccnc2)cc1	x	x	x	1.8	x	-16.0	-14.1	3.9%	15.1	0.2
COc1ccc2oc(C(=O)OCC(=O)N(C)Cc3ccccc3)c(C)c2c1	-18.1	-30.2	-1.6	2.6	-12.6	-14.7	-1.6	-6.9%	-6.3	0.0
COC(=O)c1ccc(C(=O)OC)c(NC(=O)CN(c2ccccc2)S(=O)(=O)N(C)C)c1	-7.6	-11.9	-1.5	5.4	1.2	24.2	0.9	18.8%	5.4	0.4
Cc1cccc(-c2nnc(NC(=O)c3ccco3)s2)c1	9.1	18.8	0.6	6.7	-1.4	-7.0	-1.9	x	-7.4	-1.1
COc1c(S(=O)(=O)Nc2cccnc2)ccc(Cl)c1Cl	1.6	0.5	-2.7	4.8	2.5	-8.5	-3.8	-18.1%	-4.4	-0.3
O=C(/C=C/c1cccc(O)c1)c1ccc(N2CCOCC2)cc1	-15.2	-10.8	2.3	-6.7	-2.8	-6.9	-3.3	0.1%	-11.5	-1.5
COc1ccccc1-n1c(C)cc(SC)c(C(C)=O)c1=S	x	x	x	-4.2	x	-2.2	86.1*	4.2%	0.1	0.1
CCc1nc(SCC(=O)OC(C)C)c2ccccc2n1	-23.2	-24.4	-4.4	-3.0	-0.8	7.7	9.0	-8.8%	0.3	-0.1
N#Cc1cc(Oc2ccccc2)c(-n2nnc3ccccc32)cc1C#N	x	x	x	5.0	x	2.0	-5.2	9.2%	-0.6	0.1
CCN1C(=O)[C@@H]2Cc3c([nH]c4ccccc34)C(c3cc(OC)c(OC)c(OC)c3)N2C1=S (stereo partly specified)	18.2	-1.6	4.2	4.6	2.1	18.4	-6.6	-6.2%	8.4	1.7
Cc1ccc(CNC(=O)C(=O)NCCC2CCCCN2S(=O)(=O)c2ccc(C)cc2)cc1 (stereo unspecified)	-14.4	-16.3	1.5	-2.7	-15.2	34.2	4.4	x	-2.8	-0.4
CCCCCc1ccc(OCCCC[n+]2cccc(C)c2)c(CCCCC)c1	-50.5	-80.8	-14.8	-1.3	u	51.9	105.7*	x	111.0*	0.1
Cc1cc(C(=O)Nc2ncc(C)s2)c2ccccc2n1	1.4	6.8	-0.7	u	1.0	-13.1	-1.6	5.9%	-15.2	-0.4
CCCn1nc(NC(=O)c2ccco2)c2cc3ccccc3nc21	x	x	x	45.9*	x	-14.4	u	x	-2.3	0.0
O=C(NCCCc1ccccc1)C1CC(=O)N(c2ccc3c(c2)OCCO3)C1 (stereo unspecified)	x	x	x	6.1	x	-21.9	-18.0	20.1%	-3.1	0.3
CCC(C)NC(=O)CS(=O)Cc1nc(-c2cccc(C)c2)oc1C (stereo unspecified)	-2.3	-5.4	-2.3	-4.5	0.9	3.3	8.1	-6.8%	-5.1	0.2
CCN(c1ccccc1)c1cc(C)nc2nc(C)nn12	0.1	-4.8	-3.5	-2.6	-2.7	-3.9	7.1	u	-0.9	-0.3
COc1ccc(NC(=O)NC(C)c2ccccc2)cc1 (stereo unspecified)	4.7	2.2	1.8	x	-0.6	x	100.1*	x	-3.4	-0.5
CC(C)N=C1NN=C(c2ccc(Cl)c(Cl)c2)CS1	-26.2	-40.0	24.4	-0.8	6.9	12.2	-0.4	x	x	x
CCc1ccc(NC(=O)Nc2ccc3c(c2)CCC3)cc1	2.3	9.8	2.5	u	-1.4	-4.2	-8.8	x	1.1	-1.2
COC(=O)c1ccc(CSc2ncn[nH]2)o1	x	x	x	-2.3	x	-3.4	-8.3	-1.9%	-8.3	1.8
Cc1ccc2nc(NC(=O)c3ccccc3F)sc2c1	6.4	10.1	0.1	1.1	-18.9	11.0	-7.3	-5.9%	x	-8.2
O=C(Nc1ccc2sc3ccccc3c(=O)c2c1)c1ccccc1Cl	x	x	x	97.7*	x	41.7	-2.6	3.4%	-0.2	-2.3
Fc1cccc(-c2cc3nc4c(c(N5CCC6(CC5)OCCO6)n3n2)CCCC4)c1	x	x	x	1.8	x	u	26.0	19.4%	x	x
CC1CCN(c2c(NCC3CCC(C(=O)NCCc4ccccc4)CC3)c(=O)c2=O)CC1 (stereo unspecified)	-1.4	1.9	-0.4	2.0	13.7	-9.0	-4.7	-0.3%	-3.6	-0.7
COC(=O)c1ccc(NC(=O)C(=O)N2CCN(C(=S)Nc3ccccc3OC)CC2)cc1	x	x	x	19.5*	x	-12.5	19.4	10.4%	3.2	1.2
CCOC(=O)C1(Cc2cccc(OC)c2)CCCN(Cc2cc(OC)c(O)c(OC)c2)C1 (stereo unspecified)	3.6	-10.8	-0.6	0.1	-7.2	-17.7	-13.6	x	-2.3	-1.0
CN(C)S(=O)(=O)c1ccc(Nc2nc(C3CC3)nc3c2nnn3Cc2ccccc2Cl)cc1	x	x	x	2.2	x	52.8	3.0	17.3%	87.9*	-0.2
CC(=O)Nc1cccc(NC(=O)c2ccc3c(c2)CCN3S(C)(=O)=O)c1	-1.5	7.8	5.9	10.6	0.9	-5.5	-4.5	-5.8%	-4.5	0.6
O=C(CSc1nc(=O)n2ccccc2n1)OCc1ccccc1	5.6	9.2	-1.2	-4.5	-5.9	-0.8	0.8	-4.3%	-2.0	-1.3
Cc1nc2sc(C(=O)Nc3ccccc3)c(N)c2c(C)c1[N+](=O)[O-]	-8.7	-3.2	5.7	-3.9	-1.0	12.8	0.8	x	11.3	0.5
Cc1ccc(C(=O)Nc2c(-c3cccs3)nc3cc(C)ccn23)cc1	x	x	x	-0.3	x	-3.3	0.0	-4.4%	-2.2	-0.2
Cc1cc(=O)oc2cc(OCC(O)CN3CCN(c4ccccc4)CC3)ccc12 (stereo unspecified)	x	x	x	-1.6	x	13.9	53.1	-5.0%	2.0	-0.1
CCn1c(CN2CCN(c3cccc(C)c3C)CC2)n[nH]c1=S	-33.9	-36.9	-5.4	5.1	-2.8	8.7	-50.4	-4.3%	0.8	0.4
CN1C(=S)SC(/[N+]([O-])=C\c2cccs2)C1(C)C (stereo unspecified)	x	x	x	-0.6	x	-6.9	-4.7	1.9%	0.4	1.5
Cc1cc2c3c(c1)C(C)(c1ccccc1)CC(C)(C)N3C(=O)C21C(C#N)=C(N)OC2=C1C(=O)CC(C)(C)C2 (stereo unspecified)	x	x	x	x	x	-0.8	27.8	0.0%&2.6%	7.5	0.1
COc1cccc(-c2nc(CCl)cs2)c1	3.8	3.1	-3.2	0.1	-2.5	60.7*	23.3	x	4.7	-0.3
COC(=O)C1=C(C)NC(=O)/C1=C/c1ccc(CNS(=O)(=O)c2ccc(C)cc2)o1	23.0	17.6	9.4	1.8	3.2	7.1	u	u	-5.3	0.7
CCN1CC2([N+](=O)[O-])CC=C(OC)C([N+](=O)[O-])(C1)C2 (stereo unspecified)	x	x	x	3.9	x	4.2	-2.8	x	-10.2	0.2
COC1=C/C(=C/c2c(N)n3nc(CC(=O)N4CCCCC4)sc3nc2=O)C=CC1=O	x	x	x	4.9	x	-4.8	7.1	x	2.2	-0.6
COc1cccc(C(=O)OCC(=O)Nc2ccccc2N2CCOCC2)c1	x	x	x	0.9	x	8.2	10.0	-11.0%	-4.8	0.1
O=C(NCc1ccccc1)c1ccc(-c2ccccc2F)o1	-37.5*	-3.8*	-4.8*	-2.2	4.0	-1.6	13.9	-2.2%	-0.5	-0.4
CN(C)c1ccc(NC(=O)c2cnsn2)cc1	26.5	20.6	4.6	3.2	3.5	-6.6	23.6	14.1%	x	-3.1
CCn1cc(/C=C(\NC(=O)c2ccc(OC)c(OC)c2)C(=O)NCCN2CCOCC2)c2ccccc21	-3.0	-3.5	1.6	1.2	-0.4	0.6	15.5	x	-4.5	0.6
COc1nc(C)nc2c1sc(=S)n2C	x	x	x	-3.3	x	-6.9	-2.3	-15.8%	4.5	0.0
O=C(NCCCn1ccnc1)c1cc2c(s1)CCCCC2	x	x	x	x	x	-6.8	-9.5	9.9%	8.7	0.5
Cc1ccc(C(=O)N2CCCC2)c(F)c1F	x	x	x	5.2	x	-24.9	u	-1.2%	-2.7	1.1
Cc1cc(Cl)c(S(=O)(=O)Nc2cc(S(=O)(=O)N3CCOCC3)ccc2F)cc1OCC(N)=O	9.1	9.4	0.7	2.6	1.1	0.2	-16.6	x	-2.7	0.7

A portion of the library; rates above refer to the full screens.
